Bioassay records deposited in PubChem by Broad Institute.
rRNA inh HTS: reduced GFP signal of wild-type E. coli, primary screen, bacterial rRNA inhibitor project, GFP/RFP fluorescence, OD600, single point | E. coli WT GFP vs humanized-ribosome RFP mutants, 24 h; hits give low values; DMSO median 0, no signal -100 | GFP signal change (wild-type ribosome), % (test concentration not listed) | 1.6% of 350,000 active;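 active = significant combined selectivity score with lowered wild-type GFP, culture density cut under 30%, mutant RFP and density less affected; inactive = any of these conditions unmet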; note: one replicate is shown; some compounds called inactive have numbers as strong as hits
FGF22 binding: binders of human FGF22 protein, primary screen, FGF22 synaptogenesis inhibitor project, biophysical, thermal shift, single point; Fibroblast growth factor 22 (Homo sapiens), Q9HCT0; recombinant FGF22 thermal shift, SYPRO orange fluorescence; percent of sucrose octasulfate shift, DMSO zero; calls only at 9.99 µM; 1.5% of 340,000 active; AID 651658, 2012;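 active = melting point raised past a set limit in the mean and every replicate; three in four hits are not shown here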
Target sequence (Q9HCT0 whole entry, looked up): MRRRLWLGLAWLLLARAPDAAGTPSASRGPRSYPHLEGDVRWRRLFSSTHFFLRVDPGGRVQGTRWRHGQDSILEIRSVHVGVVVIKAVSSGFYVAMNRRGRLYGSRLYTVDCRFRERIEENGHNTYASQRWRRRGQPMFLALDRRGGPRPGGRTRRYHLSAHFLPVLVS
rRNA inh HTS OD600: further read-out of rRNA inh HTS, marked with its call; OD600 change, %; measured here: OD600 growth;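 optical density of the mix in the first replicate; 0 = DMSO median and -100 = no signal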
rRNA inh HTS RFP: also measured in rRNA inh HTS; calls as there; RFP signal change, %; measured here: RFP humanized mutant strains;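 first replicate; 0 = DMSO median and -100 = no signal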
* = called active by the depositor; i = inactive. The list is partial; the hit share may differ from the screen's.

SMILES	rRNA inh HTS	rRNA inh HTS OD600	rRNA inh HTS RFP	FGF22 binding
C[C@@H]1CN([C@@H](C)CO)C(=O)c2cc(NS(=O)(=O)c3ccc(F)cc3)ccc2O[C@@H](C)CCCCO[C@H]1CN(C)C(=O)C1CCCCC1	-1.0	-2.4	0.4	i
C[C@@H]1CN([C@@H](C)CO)C(=O)c2cc(-c3ccc(C(=O)N(C)C)cc3)cnc2O[C@@H]1CN(C)C(=O)CN(C)C	1.0	-4.7	-0.3	i
C[C@H]1CN([C@@H](C)CO)C(=O)Cc2cc(NC(=O)Nc3ccc4c(c3)OCO4)ccc2O[C@H]1CN(C)Cc1ccc(C(=O)Nc2ccccc2N)cc1	-57.1	-80.5	-17.4	i
NC(=O)[C@@H]1CCCN1C(=O)[C@H](CCc1ccccc1)NC(=O)[C@H]1O[C@@H](n2cnc3c(N)ncnc32)[C@H](O)[C@@H]1O	11.4	8.5	6.2	i
C[C@H](CO)N1C[C@H](C)[C@H](CN(C)Cc2ccc(C(=O)O)cc2)Oc2ccc(NC(=O)Nc3ccc(C(F)(F)F)cc3)cc2CC1=O	-2.2	-2.0	-4.7	i
CC(C)NC(=O)N(C)C[C@@H]1Oc2ccc(NC(=O)C3CCCCC3)cc2C(=O)N([C@H](C)CO)C[C@H]1C	2.8	4.7	-1.5	i
C[C@@H]1CN([C@H](C)CO)C(=O)c2cccc(NC(=O)C3CC3)c2O[C@H]1CN(C)Cc1ccc(C(=O)O)cc1	2.8	4.6	-0.4	i
O=C(c1ccccn1)N1CC2(C1)[C@H](c1ccccc1)[C@@H](CO)N2C(=O)CC1CC1	3.1	1.7	-0.1	i
COc1ccc2c3c([nH]c2c1)[C@@H](CO)N(S(C)(=O)=O)CC31CCN(CC2CCCC2)CC1	0.6	-6.4	-2.1	i
O=S(=O)(N[C@@H]1CC[C@@H](CCNS(=O)(=O)c2ccccc2Cl)O[C@H]1CO)c1ccccc1	-3.3	-4.3	-0.5	i
O=C(O)[C@H]1[C@H](CO)[C@H]2Cn3c(ccc(C4=CCCCC4)c3=O)[C@H]2N1Cc1ccccc1F	1.6	3.8	0.1	i
C[C@@H]1CCCCO[C@H](CN(C)C(=O)NC2CCCCC2)[C@@H](C)CN([C@H](C)CO)C(=O)c2cc(NC(=O)CCCN(C)C)ccc2O1	0.7	0.5	-1.9	i
CCCC#Cc1cnc2c(c1)C(=O)N([C@@H](C)CO)C[C@H](C)[C@@H](CN(C)C(=O)Nc1ccccc1OC)O2	1.6	-6.9	1.6	i
C[C@@H]1CN([C@@H](C)CO)C(=O)Cc2cc(NC(=O)Cc3cn(C)c4ccccc34)ccc2O[C@H]1CN(C)Cc1ccc(C(=O)O)cc1	1.1	4.5	-2.2	i
C[C@@H]1CN([C@@H](C)CO)C(=O)Cc2cc(NC(=O)c3ccncc3)ccc2O[C@H]1CN(C)Cc1ccc(C(=O)Nc2ccccc2N)cc1	-5.0	-1.5	0.2	i
C[C@@H]1CN([C@H](C)CO)C(=O)CCCn2cc(nn2)CO[C@H]1CN(C)Cc1ccc(C(=O)Nc2ccccc2N)cc1	-0.6	1.9	-2.4	i
COc1ccccc1-c1cnc2c(c1)C(=O)N([C@H](C)CO)C[C@H](C)[C@H](CN(C)C(=O)c1ccccc1)O2	-2.6	-2.5	-2.8	i
C/C=C/c1ccc([C@@H]2[C@@H](C#N)N(C(=O)Cc3ccccn3)[C@@H]2CO)cc1	-1.8	2.9	0.0	i
COc1ccc(S(=O)(=O)Nc2ccc3c(c2)C(=O)N([C@@H](C)CO)C[C@@H](C)[C@@H](CN(C)S(=O)(=O)c2ccc(C)cc2)O3)cc1	-1.2	-11.1	4.4	i
CC(=O)N(C)C[C@@H]1Oc2cc(C#Cc3ccccc3F)ccc2S(=O)(=O)N([C@H](C)CO)C[C@H]1C	-1.1	-19.4	4.8	i
Cc1ccccc1-c1cnc2c(c1)C(=O)N([C@H](C)CO)C[C@@H](C)[C@H](CN(C)C(=O)CC1CC1)O2	0.2	1.9	-2.0	i
Cc1ccc(S(=O)(=O)N(C)C[C@@H]2OCCCC[C@@H](C)Oc3ccc(NS(=O)(=O)c4c(C)noc4C)cc3C(=O)N([C@H](C)CO)C[C@H]2C)cc1	1.5	-8.7	3.0	i
COc1ccc(-c2ccc([C@@H]3[C@@H](C#N)N(C(=O)C4CC4)[C@H]3CO)cc2)cc1	-2.7	-0.8	-0.3	i
Cc1noc(C)c1NC(=O)Nc1ccc2c(c1)C(=O)N([C@@H](C)CO)C[C@@H](C)[C@H](CN(C)Cc1ccc(C(=O)O)cc1)O2	1.5	0.8	-0.4	i
N#C[C@@H]1[C@H](c2ccccc2)[C@H](CO)N1S(=O)(=O)c1ccc(F)cc1	2.0	3.5	-4.9	i
Cc1noc(C)c1NC(=O)Nc1cccc2c1O[C@H](CN(C)C)[C@H](C)CN([C@@H](C)CO)C2=O	4.3	-1.2	-1.4	i
CCC(=O)Nc1ccc2c(c1)C(=O)N(C)C[C@H](OC)[C@@H](C)CN(C(C)=O)[C@@H](C)CO2	-0.3	0.7	0.7	i
C[C@H](CO)N1C[C@H](C)[C@H](CN(C)Cc2ccc(C(=O)O)cc2)OCCCC[C@H](C)Oc2ccc(NC(=O)Nc3ccccc3)cc2C1=O	0.2	3.3	-1.6	i
C[C@H]1CN([C@@H](C)CO)C(=O)c2cc(NC(=O)Nc3ccc(F)cc3)ccc2O[C@@H]1CN(C)CC1CCCCC1	-6.3	0.0	-3.7	i
CC(C)CC#Cc1cnc2c(c1)C(=O)N([C@H](C)CO)C[C@@H](C)[C@H](CN(C)C(=O)Cc1cccnc1)O2	-4.5	-8.5	0.7	i

Some of the entries so far, in markdown.
| canonical_smiles | rRNA inh HTS | rRNA inh HTS OD600 | rRNA inh HTS RFP | FGF22 binding |
| --- | --- | --- | --- | --- |
| COc1ccc(-c2ccc([C@@H]3[C@@H](C#N)N(C(=O)C4CC4)[C@H]3CO)cc2)cc1 | -2.7 | -0.8 | -0.3 | i |
| Cc1noc(C)c1NC(=O)Nc1ccc2c(c1)C(=O)N([C@@H](C)CO)C[C@@H](C)[C@H](CN(C)Cc1ccc(C(=O)O)cc1)O2 | 1.5 | 0.8 | -0.4 | i |

Next section
SMILES	rRNA inh HTS	rRNA inh HTS OD600	rRNA inh HTS RFP	FGF22 binding
Cc1ccc(S(=O)(=O)Nc2ccc3c(c2)CC(=O)N([C@H](C)CO)C[C@H](C)[C@@H](CN(C)Cc2ccc(Cl)c(Cl)c2)O3)cc1	0.8	3.7	2.1	i
O=C(C1CCOCC1)N1CC(=O)N2[C@H](CO)[C@@H](c3ccc(C#CC4CCCCC4)cc3)[C@H]2C1	2.5	6.6	1.5	i
C[C@H]1CN([C@@H](C)CO)S(=O)(=O)c2ccc(C3=CCCCC3)cc2O[C@H]1CN(C)C(=O)Cc1cccnc1	-4.0	-21.9	6.7	i
C[C@H]1CN([C@@H](C)CO)C(=O)c2cc(NS(=O)(=O)c3ccc(Cl)cc3)ccc2O[C@H]1CN(C)C	-1.1	6.0	0.6	i
CCCC#Cc1ccc2c(c1)O[C@H](CN(C)Cc1ccccn1)[C@@H](C)CN([C@H](C)CO)S2(=O)=O	-31.5	-43.1	29.1	i
C[C@@H]1CN([C@@H](C)CO)C(=O)c2cc(NS(=O)(=O)c3ccc(F)cc3)ccc2O[C@@H]1CN(C)S(=O)(=O)c1cccs1	-4.7	-9.0	2.0	i
O=C(NCC[C@@H]1CC[C@H](NC(=O)C2CCOCC2)[C@H](CO)O1)c1ccc(F)cc1	0.9	-1.8	-5.7	i
Cc1ccc(-c2ccc3c(c2)O[C@@H](CN(C)C(=O)C2CCC2)[C@H](C)CN([C@H](C)CO)S3(=O)=O)cc1	-6.2	-22.6	6.6	i
CC(C)NC(=O)Nc1ccc2c(c1)C(=O)N([C@@H](C)CO)C[C@H](C)[C@@H](CN(C)C(=O)Nc1ccccc1)OCCCC[C@H](C)O2	-3.9	-1.4	2.1	i
CCCC#Cc1ccc([C@H]2[C@@H](CO)N3CCCCN(Cc4ccncc4)C[C@@H]23)cc1	3.3	6.9	-0.5	i

Compound profiles, as listed above. Values in the order: rRNA inh HTS	rRNA inh HTS OD600	rRNA inh HTS RFP	FGF22 binding
CCCC#Cc1ccc2c(c1)O[C@H](CN(C)Cc1ccccn1)[C@@H](C)CN([C@H](C)CO)S2(=O)=O is entered as -31.5	-43.1	29.1	i
CCCC#Cc1ccc([C@H]2[C@@H](CO)N3CCCCN(Cc4ccncc4)C[C@@H]23)cc1 is entered as 3.3	6.9	-0.5	i
CC(C)NC(=O)Nc1ccc2c(c1)C(=O)N([C@@H](C)CO)C[C@H](C)[C@@H](CN(C)C(=O)Nc1ccccc1)OCCCC[C@H](C)O2 is entered as -3.9	-1.4	2.1	i
Cc1ccc(S(=O)(=O)Nc2ccc3c(c2)CC(=O)N([C@H](C)CO)C[C@H](C)[C@@H](CN(C)Cc2ccc(Cl)c(Cl)c2)O3)cc1 is entered as 0.8	3.7	2.1	i
C[C@H]1CN([C@@H](C)CO)S(=O)(=O)c2ccc(C3=CCCCC3)cc2O[C@H]1CN(C)C(=O)Cc1cccnc1 is entered as -4.0	-21.9	6.7	i

(cont.)
SMILES	rRNA inh HTS	rRNA inh HTS OD600	rRNA inh HTS RFP	FGF22 binding
CC(=O)N(C)C[C@@H]1Oc2cc(-c3ccccc3F)ccc2S(=O)(=O)N([C@H](C)CO)C[C@@H]1C	-6.7	6.3	-1.2	i
COc1ccccc1-c1ccc([C@H]2[C@H](C#N)N(C(=O)C3CCC3)[C@H]2CO)cc1	0.3	-0.9	-1.7	i
CC(C)NC(=O)Nc1ccc2c(c1)C(=O)N([C@@H](C)CO)C[C@@H](C)[C@@H](CN(C)S(=O)(=O)c1ccc(F)cc1)OCCCC[C@@H](C)O2	-5.9	-6.5	1.7	i
CCCN1C[C@H](C)[C@@H](OC)CN(C)C(=O)c2ccc(NC(=O)Nc3c(C)noc3C)cc2OC[C@@H]1C	2.0	-1.5	1.0	i
CN1CCN(C(=O)c2cc3c(c(-c4cccc(-c5ccc(C#N)cc5)c4)n2)[C@@H](CCO)N([S@](=O)C(C)(C)C)C3)CC1	-2.9	-11.3	-0.2	i
CCCN(C)C[C@H]1OCCCC[C@@H](C)Oc2ccc(NS(=O)(=O)c3ccc(C)cc3)cc2C(=O)N([C@H](C)CO)C[C@H]1C	-0.7	-5.5	6.1	i
C[C@H](CO)N1C[C@H](C)[C@H](CN(C)C(=O)c2ccccc2)OCCCC[C@H](C)Oc2ccc(NC(=O)Nc3ccccc3)cc2C1=O	-3.8	-8.4	3.2	i
CN1c2ccc(-c3ccc(C#N)cc3)cc2[C@@H]2[C@@H](CCN2C(=O)CC2CC2)[C@@H]1CO	-22.4	-36.8	9.9	i
CN1C(=O)c2cc(NC(=O)c3cscn3)ccc2OC[C@H]2O[C@@H](CC(=O)N3CCOCC3)CC[C@H]21	-0.1	6.5	1.2	i
C[C@@H]1CN([C@H](C)CO)C(=O)c2cccc(NC(=O)Nc3ccc4c(c3)OCO4)c2O[C@@H]1CN(C)Cc1ccc(C(=O)Nc2ccccc2N)cc1	-4.0	-7.1	-1.6	i
CC(C)NC(=O)N(C)C[C@H]1Oc2ncc(C#Cc3ccncc3)cc2C(=O)N([C@@H](C)CO)C[C@@H]1C	0.3	3.5	-1.5	i
CCCNC(=O)N1CC2(CN(C(=O)C3CCCC3)C2)c2c([nH]c3cc(OC)ccc23)[C@H]1CO	-2.0	-1.8	0.1	i
COc1ccc2c3c([nH]c2c1)[C@@H](CO)N(C(=O)NC(C)C)CC31CCN(C(=O)c2ccccn2)CC1	-1.9	-3.0	0.9	i
CC(C)NC(=O)N(C)C[C@@H]1Oc2ncc(C#CC(C)(C)O)cc2C(=O)N([C@H](C)CO)C[C@@H]1C	6.6	6.1	-1.8	i
O=C(C[C@H]1C=C[C@H](NC(=O)c2cccc(F)c2)[C@H](CO)O1)NCc1ccccc1	-1.4	1.9	-0.8	i
CCCc1ccc(-c2cc(NC(=O)Cc3c(C)[nH]c4ccccc34)ccc2N(C)c2cccnc2)cc1	-6.0	29.4	1.4	i
CCCC(O)C#Cc1cnc2c(c1)C(=O)N([C@H](C)CO)C[C@H](C)[C@H](CN(C)C)O2 (stereo partly drawn)	3.9	12.6	-3.1	i
CC(C)NC(=O)Nc1cccc2c1O[C@H](CN(C)Cc1ccc(-c3ccccc3)cc1)[C@@H](C)CN([C@H](C)CO)C2=O	-1.3	3.7	1.1	i
Cc1noc(C)c1NC(=O)Nc1ccc2c(c1)C(=O)N([C@@H](C)CO)C[C@H](C)[C@H](CN(C)S(=O)(=O)c1cccs1)OCCCC[C@@H](C)O2	1.4	0.8	-0.1	i
CCCC#Cc1ccc([C@@H]2[C@@H](CO)N3C(=O)CN(C(=O)Nc4cccc(F)c4)C[C@@H]23)cc1	-36.8	-47.5	21.9	i
C[C@H](CO)N1C[C@H](C)[C@@H](CN(C)Cc2ccncc2)Oc2c(NC(=O)C3CCOCC3)cccc2C1=O	-1.6	7.3	-1.0	i
C[C@@H]1CN([C@H](C)CO)C(=O)c2cc(-c3cncnc3)cnc2O[C@H]1CN(C)C(=O)Nc1ccc2c(c1)OCO2	0.0	8.2	-3.9	i
CO[C@H](CN(C)C(=O)c1cnccn1)[C@H](C)CN([C@H](C)CO)S(=O)(=O)c1ccc(C)cc1	1.9	-5.3	-3.3	i
O=C(C[C@@H]1C[C@H]2c3cc(NS(=O)(=O)c4ccccc4)ccc3O[C@H]2[C@H](CO)O1)N1CCCCC1	-3.0	-9.2	0.2	i
